Screens (PubChem)
NPYLR7 agonist – agonists of mosquito NPYLR7 receptor, primary screen, cell-based, Aedes aegypti, calcium fluorescence, mosquito biting behavior; AID 1259423, 2018; 0.15% of 270,000 active; activation, % at 10 µM; HEK293T NPYLR7/Galpha15, GCaMP6s calcium fluorescence; Aedes aegypti neuropeptide Y-like receptor 7 (NPYLR7); in the data active = activation above about 40%;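 also: 0% = vehicle and 100% = reference agonist at the receptor; some compounds past the cut are filed as inactive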
NPYLR7 agonist max-min – second read-out of NPYLR7 agonist, no call of its own (marks repeat the call); activation, %; measured here: Max-Min RFU normalised activation; some inactives read as strong as hits;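 span of the calcium signal over five minutes; 0% = vehicle and 100% = native peptide agonist; compound fluorescence can raise it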
The depositor's hits bear a star; & = joins results of further samples. Only part of the results is shown; rates above refer to the full screens.

molecule,NPYLR7 agonist,NPYLR7 agonist max-min
COC(=O)CCc1c(C)nn(-c2ccc(C(=O)N3CCC[C@H]3C(=O)OCc3ccccc3)cc2)c1C,16,9
CCOC(=O)c1nn(CCc2ccccc2)c2c1CN(C(=O)C1=C(C)OCCO1)CC2,11,-2
NC(=O)C1CCN(C(C(=O)N2CCCCC2)c2ccccc2)CC1 (stereo not drawn),4,3
CC(C)c1nnc2sc(C3CC34CCC4)nn12 (stereo not drawn),3,-7
COc1cccc(C(=O)N(Cc2nccn2Cc2cccc(Cl)c2)C2CCCCC2)c1,-4,1
COC(=O)c1cc(OC)c(OC)cc1NS(=O)(=O)c1cccc(C#N)c1,-8,13
O=C(CCN1CCC(c2ccccc2)C1)Nc1ccc(F)cc1 (stereo not drawn),7,4
O=C(Cc1ccc(F)cc1)NCCOc1ccc(-c2ccccc2)nn1,-3,-1
COc1ccc(CN(C(=O)C(C)C)C(C)C)cc1OS(=O)(=O)c1ccc(NC(C)=O)cc1,7,-2
CCOC(=O)C(CC)Sc1ccc2nnc(-c3cccnc3)n2n1 (stereo not drawn),-2,-3
COC(=O)c1cc2c(=O)n(-c3ccc4c(c3)OCCO4)ccc2nc1C,0,-2
C=CCn1c(SCC(C)=O)nc2sc3c(c2c1=O)CCCCC3,4,0

By substructure: those above containing an aryl thioether with sulfur outside any ring
molecule,NPYLR7 agonist,NPYLR7 agonist max-min
CCOC(=O)C(CC)Sc1ccc2nnc(-c3cccnc3)n2n1 (stereo not drawn),-2,-3
C=CCn1c(SCC(C)=O)nc2sc3c(c2c1=O)CCCCC3,4,0

Additional entries follow:
molecule,NPYLR7 agonist,NPYLR7 agonist max-min
CCCC(=O)N=c1sc2c(Cl)ccc(C)c2n1C,13,10
O=C(COc1ccc(F)cc1)N1CCOC(COc2cccc(C(F)(F)F)c2)C1 (stereo not drawn),-4,-6
OCc1ccnc(-c2cccc3cnccc23)c1,4,-2
COc1cc(Cl)ccc1OCc1cc(C(=O)NC(C)Cc2cnccn2)no1 (stereo not drawn),11,2
O=c1oc(-c2ccccc2O)nc2ccccc12,3,2
CC(C)(C#N)C(=O)Nc1ccnc(Oc2ccccc2Cl)c1,5&7,2&3
CN(C)CC1(O)CCN(C(=O)c2ccc(CO)o2)C1 (stereo not drawn),-2,-3
O=C(NCCCc1ccccn1)c1ccc(N2CCN(C3CCCC3)CC2)nc1,7,8
CN1CCC2(CC1)CN(C(=O)CCN(C)S(C)(=O)=O)CCCN2C,20,10
CCOC(=O)c1c(C)nn(-c2ccc(C(=O)NCc3ccc(OC)cc3OC)cc2)c1C,1,-3
CC(C)S(=O)(=O)Oc1ccc(CN(C(=O)c2ccccc2F)C2CC2)cc1,-5,-3
CC(C)(C)Nc1c(-c2ccc(Cl)c(Cl)c2)nc2ccc(Cl)cn12,-9&2,-6&11

Random excerpt: 2 records from the list
molecule,NPYLR7 agonist,NPYLR7 agonist max-min
C=CCn1c(SCC(C)=O)nc2sc3c(c2c1=O)CCCCC3,4,0
COC(=O)c1cc2c(=O)n(-c3ccc4c(c3)OCCO4)ccc2nc1C,0,-2

(next part)
molecule,NPYLR7 agonist,NPYLR7 agonist max-min
CC(CCc1ccccc1)NC(=O)c1ccc(CSc2nc(Cl)cc(N3CCN(c4cccc(Cl)c4)CC3)n2)cc1 (stereo not drawn),25,29
COc1cc(C=C(C#N)C#N)ccc1OC(=O)c1cccc(F)c1,-2,-10
CCN(Cc1c(F)ccc(OC)c1Cl)C1CCS(=O)(=O)C1 (stereo not drawn),5,4
COc1ccc(-c2nn(CC(=O)NC(C)C)c(=O)c3nc(C)sc23)cc1OC,6,2
Cc1ccc(F)c(CC(=O)N2CCOC(COCc3ccccc3F)C2)c1F (stereo not drawn),21,16
O=C1/C(=C\C=C\c2ccccc2)SC(=S)N1Cc1ccc(Cl)c(Cl)c1,-9,-12
COC(=O)c1ccc(-c2ccc(/C=C3/NC(=S)NC3=O)o2)cc1,5,15
O=C(CCN1CCCCO1)NC1CCCN(CC2CCCCC2)C1 (stereo not drawn),7,1
COC1CCCC(OC(=O)c2ccc(S(=O)C(C)C)cc2)C1 (stereo not drawn),5,4
Cc1cc(N(C)Cc2nc3ccsc3c(=O)[nH]2)nc(-c2cccnc2)n1,0,-3
CC(=O)Nc1ccc(CN2C(=O)C(C)(C)ON=C2c2ccc(C(F)(F)F)cc2)cc1,2,-1
COc1ccc(CCNC(=O)c2ccccc2N2CCC(NC(=O)Nc3ccc(C)cc3)CC2)cc1OC,-1,8
COCc1nnc2sc(/C=C/c3ccccc3OC)nn12,-3,-2
Cc1nnc(Sc2cnc3ccccc3n2)n1N,-11,-11
CN(C)c1ccc(-c2nnc(C3CCc4nnc(C5CC5)n4C3)o2)cn1 (stereo not drawn),1,10
Cc1ccc(-n2c(CCC(=O)NC3CCCc4ccccc43)cc3c2-c2ccccc2OC3)c(F)c1 (stereo not drawn),-1,-4
COc1cccc(-c2cccc(CN3C[C@H]4C[C@H](O)[C@H](O)C[C@H]4C3)c2)c1,0,-4
O=C(COc1coc(CN2CCc3ccccc32)cc1=O)N1CCC(Cc2ccccc2)CC1,15,12
O=C(NCCc1nnc2n1CCNCC2)c1cc2ccccc2[nH]1,1,-8
CCCCCC(=O)NCC1CN(C(C)=O)CCO1 (stereo not drawn),8,2
CSc1cc(-c2ccc(Cl)cc2)no1,7,12
Cc1nc(C2CCCN2)n(-c2cccc3ccccc23)n1 (stereo not drawn),13,2
Cn1c(=O)n(CN2CCN(S(=O)(=O)c3c(Cl)cccc3Cl)CC2)c2ccccc21,2,3
Cc1nn(CC(=O)N2CC(C)OC(C)C2)c(=O)c2c1cnn2-c1ccccc1 (stereo not drawn),7,4

3 of the compounds above, with two lines to a compound.
Every second line gives: NPYLR7 agonist | NPYLR7 agonist max-min
Cc1nnc(Sc2cnc3ccccc3n2)n1N
→ -11 | -11
CN(C)c1ccc(-c2nnc(C3CCc4nnc(C5CC5)n4C3)o2)cn1 (stereo not drawn)
→ 1 | 10
O=C(NCCc1nnc2n1CCNCC2)c1cc2ccccc2[nH]1
→ 1 | -8

Remaining list, next part:
molecule,NPYLR7 agonist,NPYLR7 agonist max-min
CC(CC(=O)N(CC#Cc1ccccc1)C1CCCC1)n1cccn1 (stereo not drawn),12,9
CC(C)Oc1cc(Br)cc(C(=O)N2CCC(O)CC2)c1,-5&7,-6&7
COc1ccc(S(=O)(=O)N2CCN(C(=O)N3CCCCC3)CC2)cc1[N+](=O)[O-],-3,1
Cc1cc(C(C)(C)C)cc(C)c1CSCC(=O)Nc1c(C)n(C)n(-c2ccccc2)c1=O,8,8
Cc1ccccc1CC1(CO)CCCN(c2cc(C(=O)NC3CC3)ccn2)C1 (stereo not drawn),22,12
O=C(/C=C/c1ccco1)Nc1[nH][nH]c(=O)c1-c1ccccc1,2,1
COc1ccccc1C1NC(=O)N(C)C2=C1C(=O)N(CC(=O)NCc1ccco1)C2 (stereo not drawn),-1,6
COC(=O)c1ccc(NC(=O)CSc2nccn3nc(-c4ccccc4)cc23)cc1,-3,-6
COCc1nc(N2C[C@H]3CC=CC[C@H]3C2)c2cnn(C)c2n1,3,1
O=C1c2ccccc2C(=O)N1OS(=O)(=O)c1ccc(F)cc1,-7,-10
C1COC(c2nc(CNC3CCC4(CCNCC4)CC3)no2)C1 (stereo not drawn),5,5
Cc1cc(O)c(C(c2ccccc2)N2CCN(c3ccccn3)CC2)c(=O)n1Cc1ccccc1 (stereo not drawn),6,4
COc1ccc(Cl)cc1CC1(C)C(=O)Nc2c(Cl)cccc21 (stereo not drawn),4,4
Cc1cc(N2CCCCC2)nc(NCCNS(C)(=O)=O)n1,0,-2
CCOC(=O)c1[nH]c2ccc(I)cc2c1CCN1C(=O)c2ccccc2C1=O,5,3
COc1cc(OC)cc(C(=O)Nc2ccccc2-c2cccs2)c1,3,0
Cn1cc(S(=O)(=O)N2CCN(S(=O)(=O)c3ccccc3C(F)(F)F)CC2)cc1C(N)=O,5,5
O=C(c1ccccc1)N1N=C(c2ccc(F)cc2)CC1c1ccc2nccnc2c1 (stereo not drawn),-1,19
Cc1ccc(C(C(=O)N(C)CC2CCN(CCc3cccc(F)c3)CC2)N(C)C)cc1 (stereo not drawn),9,10
CN(C)C(=O)N(CC(=O)N1CCc2sccc2C1c1ccc(Cl)cc1Cl)Cc1ccco1 (stereo not drawn),10,9
CC(C)(C)c1ccc(C(=O)N2CCC2(C)C(=O)NS(=O)(=O)c2ccc(C(C)(C)C)cc2)cc1 (stereo not drawn),1,0
Cc1cc(NC(=O)C(C)NC2CCSc3ccc(Cl)cc32)no1 (stereo not drawn),-4,-5
Cc1ccccc1S(=O)(=O)N1CCC(CCc2ccc3c(c2)OCO3)CC1,1,-3
COc1ccc(S(=O)(=O)N2CCCOC2CNC(=O)C(=O)NCCC2=CCCCC2)cc1C (stereo not drawn),0,0
CC(Sc1nc(N)nc2nc[nH]c12)C(=O)N1CCN(Cc2ccc3ccccc3c2)CC1 (stereo not drawn),10,8
COc1ccc(C(Cl)Cl)c(C(=O)O)c1,-4,-10
CC(C)c1cc(Br)c(NC(=O)N[C@H](C)C(=O)N2CCC(C(=O)N3CCCCC3)CC2)c(Br)c1,19,17
O=P(O)(O)C(Nc1cccc(Cl)c1)c1cccc(F)c1 (stereo not drawn),2,1
O=[N+]([O-])c1ccccc1C=Nc1ccc(N=Cc2ccccc2[N+](=O)[O-])cc1,-7,-11
CCCn1c(O)c(N=NC(=O)c2ccc(C)cc2)c2ccccc21,0,-4
CCOc1ccccc1CNCCNc1ccccn1,-5,-8
Nc1c(N(CCO)CCCOc2ccccc2)c(=O)[nH]c(=O)n1Cc1ccccc1,1,15
COC(=O)CCC1CCCCN1C(=O)c1cc2ccccc2[nH]c1=O (stereo not drawn),-2,-6
COc1ccccc1-c1nc2cc(C)ccn2c1NC(=O)C1CCCCC1,-12,-8
Cc1cc(C)c2cc(C(=O)OCC(=O)N(C)C3(C#N)CCCCC3)[nH]c2c1,2,1
CCN1C(=S)NC(c2ccc(NS(C)(=O)=O)cc2)C(C(=O)OC)=C1C (stereo not drawn),14,28
CCOc1ccc(-n2nnc3c(N4CCN(C(=O)CCC5CCCCC5)CC4)ncnc32)cc1,-14,-18
COC(=O)c1occc1CN(C)c1ccccc1,4,-1
O=S(=O)(c1ccccc1Cl)N1CCN(Cc2cc(-c3ccccc3)no2)CC1,0,20
NC(=O)c1cc2ncc(Br)cn2n1,4,1
CSc1ncccc1C(=O)OCc1cc(-c2ccco2)on1,-2,-5
CN1CCC2(CC1)CCN(c1ncc(F)c(N3CCOCC3)n1)C2,-5,-2
COCCSc1nnc(-c2cn(C)nc2OC)n1CCOC,5,6
Nc1nc(SCC(=O)NCc2ccc(F)cc2)[nH]c(=O)c1NC(=O)c1ccccc1,-1,-4
Cc1ccc(NC(=O)NC(=O)CN(Cc2ccco2)C2CC2)cc1C,3,9
COc1ccccc1/C=C/C=C1\N=C(c2ccc(OC)c([N+](=O)[O-])c2)OC1=O,0,7
CNC(=O)CN(c1ccccc1C(=O)NC)S(=O)(=O)c1ccc(OC)cc1,6,3
CCOC(=O)CCC(=O)N1CCN(CCCOC(c2ccc(Cl)cc2)c2ccc(Cl)cc2)CC1,18,25
COCC(=O)N[C@@H]1C[C@@H]2CO[C@H](c3ccccc3)C[C@@H]2C1,4,5
O=C(O)c1coc(CN(Cc2ccc3c(c2)OCO3)Cc2ccc(Cl)cc2Cl)n1,11,12
Fc1cccc(Cl)c1-c1nccn1CCc1ncc[nH]1,13,9
Oc1ccccc1-c1nc2c3cnn(-c4cccc(Cl)c4)c3ncn2n1,-5,-1
CCCCS(=O)(=O)NC(C)C(=O)N1CCC(OC)CC1 (stereo not drawn),1,-1
COc1ccnc(NC(=O)C2(C)CCN2C(C)C)c1C#N (stereo not drawn),1,-1
CCOc1cccc2sc(N(CCCN(C)C)C(=O)c3ccc(Cl)s3)nc12,4,2
COc1cccc(-n2nnc3c(=O)[nH]cnc32)c1,-5,-5
COCCN(CC(=O)N1CC(=O)N(c2cccc(C)c2)C1)C(=O)N(C)C,-8,-4
CSc1ccc(COc2coc(CN3CCN(S(=O)(=O)c4cccc(C)c4)CC3)cc2=O)cc1,34,19
Cc1cc(C)n(CC(C)CNC(=O)NCc2ccn[nH]2)n1 (stereo not drawn),0,-3
CC(C)Oc1ncccc1CNCc1ccccc1-n1cccn1,5,2

Going on with the list:
molecule,NPYLR7 agonist,NPYLR7 agonist max-min
COc1ccc(-c2nn(-c3ccc(C)cc3)c(OC(C)=O)c2-c2ccc(NC(=O)c3ccco3)cc2)c(OC)c1,15,21
O=C1CCCCN1Cc1cccc(NC(=O)C2(c3cccc(C(F)(F)F)c3)CCOCC2)c1,0,6
CS(=O)(=O)NCCC1CCCCN1C(=O)NCC1CCCO1 (stereo not drawn),10,7
Cc1ccc(C=C2SC(=S)N(C(C(=O)O)C(C)C)C2=O)o1 (stereo not drawn),2,2
O=C(CN1CCc2[nH]c3ccc(F)cc3c(=O)c2C1)NC1CCCC1,5,7
CC(c1ccccc1)N(Cc1cc(NC(=O)C2CCCC2)ccc1N(C)C)C(=O)NC(C)(C)C (stereo not drawn),3,0
Cc1cccc(C)c1-n1nnnc1C1(Nc2cccc(O)c2)CCCCC1,-17,-22
NC(Cc1ccc(C(F)(F)F)cc1)c1csc(Nc2ncccn2)n1 (stereo not drawn),2,2
COc1ccc(Cl)c2sc(NCCN3CCOCC3)nc12,2,1
